Screens deposited in PubChem BioAssay by Southern Research Institute.
Mtb H37Rv: Mycobacterium tuberculosis H37Rv growth inhibition, cell based, confirmatory dose response (AID 1949) | 1.6% of 100,000 active | M. tuberculosis H37Rv growth inhibition | one-dose inhibition, % at 10 µg/mL; IC50 in µg/mL for titrated hits | most inactive calls were filed without a number and no value below 0 was filed;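 active = confirmed in a dose series; inconclusive = about 50% or more but not retested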;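 note: bacteria grown 7 days with compound before Alamar blue readout; 0% = untreated bacteria and 100% = reference antibiotic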
* marks the source's active call; other numbers are inactive results; i = inactive; ? = inconclusive. A portion of the library; rates above refer to the full screens.

SMILES	Mtb H37Rv
O=C(COc1ccc(-c2ccccc2)cc1)OC1CCCCC1	0.65µg/mL*
CCOC(=O)c1sc(/N=C\N(C)C)nc1C	i
CN1CCc2c(c(S)[nH]c(=S)c2C#N)C1	i
Cc1sc(NC(=O)c2ccc(F)cc2)c(C(N)=O)c1C	6.1%
CC(=O)Nc1cccc(NC(=S)Nc2ccccc2C(F)(F)F)c1	i
COc1cc(Br)ccc1NC(=O)c1ccc(F)cc1	1.9%
N#Cc1ccccc1Sc1ccccc1C(=O)Nc1ccccc1C(F)(F)F	i
CN(CC(=O)N1CCCC1)S(=O)(=O)c1ccc2ccccc2c1	i
Clc1ccc(OCCN2CCCCCC2)cc1	i
CCOC(=O)c1c(NC(=O)Cc2ccc(Cl)cc2)sc2ccccc12	i
CC1=C(C(=O)Nc2ccccc2F)C(c2ccsc2)C2=C(CC(c3ccccc3)CC2=O)N1 (stereo not drawn)	11.1%
CCc1nc2ccccc2n2c(-c3cccc(C)c3)c3c(=O)n(C)c(=O)n(C)c3c12	12.8%
CCCc1ccc(OC(=O)c2ccc(OC)c(OC)c2)cc1	2.37µg/mL*
CCNS(=O)(=O)c1cccc(S(=O)(=O)c2ccc(Cl)cc2)c1	i
Cc1ccc(NC(=O)CSc2nnc(-c3ccccc3)n2-c2ccccc2)c(Br)c1	i
O=C(Nc1cccc(Cl)c1)Nc1c(Cl)cccc1Cl	i
C=CCn1c(SCC(=O)N2CCCCC2)nc2scc(-c3ccc(C)cc3)c2c1=O	6.1%
O=C(NC(=S)Nc1ccccc1N1CCCC1)c1ccccc1Br	35.4%
C=CCC(c1ccncc1)/[N+]([O-])=C\c1ccccc1 (stereo not drawn)	i
O=C(Nc1nnc(C2CC2)s1)c1ccccc1[N+](=O)[O-]	i
Cc1ccnc(Nc2nc3ccccc3o2)n1	?
COc1ccc(-c2nc3ccccc3c(C(=O)N3CCN(c4cccc(C)c4C)CC3)c2C)cc1	11.9%
CC1CCCN(CC(O)COc2ccc3c(c2)OCO3)C1 (stereo not drawn)	i
COC(=O)COc1cccc(NC(=O)Cc2ccccc2)c1	2.9%
Cc1ccccc1OCCCC(=O)Nc1ccccc1C(C)C	i

Molecules listed so far that have an aryl methoxy group, in the order listed:
SMILES	Mtb H37Rv
COc1cc(Br)ccc1NC(=O)c1ccc(F)cc1	1.9%
CCCc1ccc(OC(=O)c2ccc(OC)c(OC)c2)cc1	2.37µg/mL*
COc1ccc(-c2nc3ccccc3c(C(=O)N3CCN(c4cccc(C)c4C)CC3)c2C)cc1	11.9%

Arranged by SMILES length (lowest first): five of the compounds above
SMILES	Mtb H37Rv
Clc1ccc(OCCN2CCCCCC2)cc1	i
CN1CCc2c(c(S)[nH]c(=S)c2C#N)C1	i
C=CCC(c1ccncc1)/[N+]([O-])=C\c1ccccc1 (stereo not drawn)	i
CC(=O)Nc1cccc(NC(=S)Nc2ccccc2C(F)(F)F)c1	i
CCc1nc2ccccc2n2c(-c3cccc(C)c3)c3c(=O)n(C)c(=O)n(C)c3c12	12.8%

Later entries.
SMILES	Mtb H37Rv
COc1cccc(OC)c1C(=O)Nc1ccc(-c2ccc(NC(=O)c3c(OC)cccc3OC)c(C)c2)cc1C	1.0%
CC(C)(C)c1ccc(C(=O)Nc2nc(-c3ccccc3)ns2)cc1	3.05µg/mL*
Cc1ccc(NC(=O)C(=O)N2CCCCC2)cc1C	i
Fc1ccc(OCCCOc2ccc(F)cc2)cc1	i
CC1=CC(C)C2C(=O)N(CCCN(C)C)C(=O)C2C1 (stereo not drawn)	i
CN(C)c1ccc(C(=S)NC2CCCCC2)cc1	i
O=C(Nc1ccccc1-c1nc2ccccc2s1)c1cc(I)ccc1Cl	i
CCn1c(COc2ccccc2)nnc1SCC(=O)Nc1ccc(Cl)c(C(=O)OC)c1	i
COc1ccc2nc(N/C(N)=N/C(=S)Nc3c(C)cccc3C)nc(C)c2c1	i
O=C(Nc1c(Cl)cccc1Cl)c1ccc(COc2ccc3c(c2)CCC3)o1	i
FC(F)(F)c1cccc(NC(=S)N2CCCCC2)c1	i
O=[N+]([O-])c1ccc2nc(SCc3ccccc3Cl)sc2c1	i
OC(CSc1nc2ccccc2s1)Cn1c2ccccc2c2ccccc21 (stereo not drawn)	11.1%
Cc1ccc(NS(=O)(=O)c2cccc3cccnc23)cc1	i
COc1ccc(N2CCN(c3ncnc4c3cnn4-c3ccc(Cl)cc3)CC2)cc1	i
CCC(c1ccccc1)c1nc(-c2ccc([N+](=O)[O-])cc2)no1 (stereo not drawn)	i
O=C(Cc1cccc2ccccc12)Nc1ccc(S(=O)(=O)N2CCCCC2)cc1	i
Brc1ccc(SCCc2ccccn2)cc1	5.7%
CC1CCN(C(=O)CSc2nnc(N)s2)CC1	i
COc1ccc(OCCC(=O)Nc2ccccc2)cc1	i
COc1ccc(-n2c(-c3cc(C(C)(C)C)[nH]n3)n[nH]c2=S)cc1	i
CCC(CC)C(=O)Nc1nnc(Cc2ccc(OC)cc2)s1	5.9%
CCN(c1ccccc1)S(=O)(=O)c1cccc2nonc12	i
CCOc1ccc(OCC)c(S(=O)(=O)N2CCN(c3ccccc3Cl)CC2)c1	4.0%
CCOCC(=O)Nc1cc([N+](=O)[O-])ccc1C	i

Fetched by structure from the entries so far, two records:
SMILES	Mtb H37Rv
O=C(Nc1ccccc1-c1nc2ccccc2s1)c1cc(I)ccc1Cl	i
CCn1c(COc2ccccc2)nnc1SCC(=O)Nc1ccc(Cl)c(C(=O)OC)c1	i

Further results follow:
SMILES	Mtb H37Rv
O=C(Nc1ccc(S(=O)(=O)N2CCOCC2)cc1)c1ccccc1Oc1ccccc1	i
CC(=O)c1ccc(NC(=O)CN(C)S(=O)(=O)c2ccccc2)cc1	i
O=C(Nc1ccc([N+](=O)[O-])cc1Cl)c1ccccc1F	i
O=C(NCc1cccs1)c1nc2ncccn2n1	i
CCOc1ccc(C(=O)NCC2COc3ccccc3O2)cc1OC (stereo not drawn)	i
CCOc1cc(S(=O)(=O)Nc2cc(C)ccn2)ccc1Cl	i
CCCCC(=O)Nc1ccc(NC(=S)NC(=O)c2ccc(OC)c([N+](=O)[O-])c2)cc1OC	i
COc1ccc(/C=C2/C(=O)NC(=O)N(C3CCCCC3)C2=O)cc1O	4.1%
Cc1ccc(OC(=O)CCC(=O)Nc2ccc(-c3nc4ccc(C)cc4s3)cc2)cc1	0.5%
CCc1c(C)sc(NC(=O)c2cccc(OC)c2)c1C(=O)OC(C)C	1.6%
COc1ccc(CN2CCN(C(=O)c3cccc(OC)c3OC)CC2)c(OC)c1	i
Cc1ccc(-n2c(SCc3ccc(C#N)cc3)nc3ccccc3c2=O)cc1	i
COc1ccc(-c2cc(C(=O)N3CCOCC3)c3cc(C)ccc3n2)cc1	8.7%
CN(C)S(=O)(=O)c1ccc(NC(=O)Cc2cccs2)cc1	i
COc1ccc(-c2csc(NC(=S)NC(=O)c3ccc(OC)c([N+](=O)[O-])c3)n2)cc1OC	6.3%
O=C(O)C1C2CCC(C2)C1C(=O)Nc1nc2ccc(F)cc2s1 (stereo not drawn)	i
Cn1c(=O)c2cn3c4ccccc4nc(C(F)(F)F)c3c2n(C)c1=O	i
O=C(Cn1nnc2ccccc2c1=O)c1ccccc1Cl	0.4%
Cc1cccc(C(=O)Nc2ccc3c(c2)OCCO3)c1[N+](=O)[O-]	i
CCn1cnc2sc(C(=O)O)c(C)c2c1=O	5.0%
O=C(Nc1ccccc1Br)c1ccc2ccccc2c1	i
O=C(CCCC(=O)N1CCN(c2cccc(Cl)c2)CC1)N1CCN(c2cccc(Cl)c2)CC1	4.7%
COc1c(Cl)cc(Cl)cc1C(=O)Nc1ccc(Br)c(C)n1	0.8%
CCc1ccc(OCC(=O)Nc2ccc(S(=O)(=O)N(C)C)cc2)c(Br)c1	i
O=C(Nc1cc(C(F)(F)F)ccc1OCC(F)(F)C(F)F)c1ccccc1O	0.5%

The closing 3 entries of the part above are carried over, then new ones follow:
SMILES	Mtb H37Rv
COc1c(Cl)cc(Cl)cc1C(=O)Nc1ccc(Br)c(C)n1	0.8%
CCc1ccc(OCC(=O)Nc2ccc(S(=O)(=O)N(C)C)cc2)c(Br)c1	i
O=C(Nc1cc(C(F)(F)F)ccc1OCC(F)(F)C(F)F)c1ccccc1O	0.5%
CC(=O)N1N=C(c2cccs2)CC1c1ccc(Br)cc1 (stereo not drawn)	i
Cc1nc2ccccc2n1C1CC(=O)N(c2ccc(Cl)c(C(F)(F)F)c2)C1=O (stereo not drawn)	i
CS(=O)(=O)N(CC(=O)N1CCCC1)c1ccc(F)cc1	0.0%
O=C(Nc1ccc2c(c1)C(=O)N(CC1CCCO1)C2=O)c1ccccc1Br (stereo not drawn)	i
CC(C)(C)C(=O)Nc1ccc(NC(=O)c2ccco2)cc1	6.6%
COc1ccc(S(=O)(=O)N(C)CC(=O)Nc2cc(Cl)cc(Cl)c2)cc1C	i
CCCC(=O)Nc1cccc(NC(=S)NC(=O)c2ccccc2Cl)c1	0.6%
Cc1nnc(SCC(=O)Nc2cccc(NC(=O)C34CC5CC(CC(C5)C3)C4)c2)s1	i
COc1ccc(C)cc1NC(=O)CN(Cc1ccc(F)cc1)S(=O)(=O)c1ccccc1	i
O=C1c2ccccc2C(=O)N1CCOc1cccc2ccccc12	i
COc1ccc(CCNC(=S)NNC(=O)C(O)(c2ccccc2)c2ccccc2)cc1OC	i
CC(Oc1cccc(Cl)c1)C(=O)Nc1ccc(F)cc1F (stereo not drawn)	i
CCOc1ccc(NC(=O)Nc2ccc(C(N)=O)cc2)cc1	i
CCOC(=O)C1=C(C)NC2=C(C(=O)C(C(=O)OC)C(C)C2)C1c1cccc(Cl)c1 (stereo not drawn)	i
CCC(C)NCCOCCOc1cccc(C(C)C)c1 (stereo not drawn)	i
COc1ccc(S(=O)(=O)N2CCC(C(=O)N3CCN(c4ccccc4OC)CC3)CC2)cc1	i
CC(C)=C1C2CCC1C(C(=O)NCc1ccc(Cl)cc1)C2C(=O)O (stereo not drawn)	i
O=c1c2ccccc2nc(SCc2ccccc2F)n1-c1ccc(Cl)cc1	i
CC(C)(C)CC(=O)Oc1ccc2c(=O)c(Oc3ccccc3Cl)coc2c1	i
O=C(NCCCN1CCOCC1)c1cc(-c2ccc(Br)cc2)nc2ccccc12	i
Cn1c(SCc2cccc3ccccc23)nnc1-c1ccco1	i
CCN1CCN(C(=O)c2cccc3ccccc23)CC1	i
O=C(c1ccc(Br)o1)N(c1ccccn1)C1CCCCC1	i
COc1ccccc1-c1nc(S(=O)(=O)c2ccc(Cl)cc2)c(N(C)C)o1	i
Cc1ccc(C)c(S(=O)(=O)Nc2cc(SCC(=O)O)c(O)c3ccccc23)c1	0.8%
(listing goes on)
SMILES	Mtb H37Rv
O=S(=O)(Nc1ccncc1)c1cccc(C(F)(F)F)c1	i
COC(=O)Nc1nc(-c2ccc(F)cc2)cs1	0.5%
COc1ccc2nc(SCC(=O)Nc3ccc(F)c(Cl)c3)[nH]c2c1	41.0%
O=C(Nc1ccccc1C(F)(F)F)C1CCN(C(=O)c2ccc(F)cc2)CC1	i
O=S(=O)(Nc1ncccn1)c1ccc(NC(=S)NC2CCCc3ccccc32)cc1 (stereo not drawn)	i
CCCCNC(=O)/C(=C/c1ccc(-c2cccc([N+](=O)[O-])c2)o1)NC(=O)c1ccc(OC)cc1	i
N#CC1=C(N)Oc2n[nH]c(-c3ccccc3)c2C1c1ccnc2ccccc12 (stereo not drawn)	0.7%
O=C(Nc1cnc2sccn2c1=O)c1ccc(F)cc1	5.1%
COc1ccc(CCNC(=S)Nc2ncn(Cc3ccc(Cl)c(Cl)c3)n2)cc1OC	i
Cc1ccc(S(=O)(=O)N(CC(=O)NCc2ccncc2)Cc2ccccc2Cl)cc1	0.8%
CC(C)(Oc1cccc2ccccc12)C(=O)O	1.9%
Cc1ccc(OCCOCCN2CCCC(C)C2)c(Cl)c1 (stereo not drawn)	i
CCOC(=O)c1c(NC(=O)CCc2ccccc2)sc(C(C)=O)c1C	i
CC(C)CC(=O)Nc1ccc(C(=O)Nc2cccc(O)c2)cc1	0.6%
CCC(C)NC(=O)c1ccccc1N(Cc1ccc(Cl)cc1)S(=O)(=O)c1ccc(C)cc1 (stereo not drawn)	15.1%
O=C(NCCOc1ccc2ccccc2c1)c1cncc(Br)c1	i
Oc1cccc(Nc2nc(-c3ccccc3Cl)nc3ccccc23)c1	8.5%
COCCNCCOCCOc1c(C)cccc1C(C)(C)C	i
O=C(CSc1nnc(-c2ccncc2)o1)c1cc2ccccc2oc1=O	?
O=C(c1ccccc1)c1cccc(Cn2nnc3ccccc3c2=O)c1	i
N#Cc1nc(COc2ccccc2Cl)oc1NC1CC1	i
CSc1ccccc1NC(=O)c1ccc(C)o1	i
CC(=O)c1ccc(NC(=O)c2cc(S(=O)(=O)N(C)C)ccc2Cl)cc1	i
Cc1ccc(-c2cc(C(F)F)n3ncc(C(=O)Nc4cnn(Cc5ccccc5)c4)c3n2)cc1	2.6%
Cc1cc(NC(=O)c2cccc(OCc3ccccc3)c2)c(C)cc1I	2.5%
The results go on.
SMILES	Mtb H37Rv
O=C(CN1CCCC1)Nc1ccccc1[N+](=O)[O-]	i
CC(C)CCSc1nc(N)c(C#N)cc1C#N	i
CCOc1ccccc1-c1nc(SCc2ccc(OCC)c([N+](=O)[O-])c2)n[nH]1	i
CCc1cccc(C)c1NC(=O)c1ccccc1N(Cc1ccccc1)S(=O)(=O)c1ccc(OC)cc1	i
CCOC(=O)c1cc(OC(=O)c2ccco2)n(-c2ccccc2)n1	i
O=C(CC1NC(=O)NC1=O)Nc1cccc(C(F)(F)F)c1 (stereo not drawn)	i
Cc1cccc(C(=O)NC(=S)Nc2ccccc2C(=O)O)c1	i
Cc1ccc(S(=O)(=O)NC(C)(C)CSc2nncn2C)cc1	i
CC1=C(C(=O)OC(C)(C)C)C(c2ccc(N(C)C)cc2)NC(=O)N1 (stereo not drawn)	i
COCCCN1C(=O)c2oc3ccc(Br)cc3c(=O)c2C1c1cccc(OCCC(C)C)c1 (stereo not drawn)	i
O=C(CCc1ccccc1)Nc1ccc(S(=O)(=O)N2CCCCC2)cc1	1.7%
